Assay outcomes: PubChem, several laboratories
RGS16-Gao HTS = regulators of human RGS16-Galphao interaction | 0.38% of 220,000 active | O15492+P09471 | AID 1441 | binding response (% of control), % at 10 µM | bead-based flow cytometry RGS16-Galphao binding, fluorescence; actives lie on both sides;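 active means below 25% or above 175%, edge rows of some plates excepted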;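 further: Galphao activated by GDP with aluminum fluoride before binding; 100% = wells without compound and 0% = beads without RGS; some results beyond the cut were filed as inactive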
Target sequence (O15492 whole entry, looked up): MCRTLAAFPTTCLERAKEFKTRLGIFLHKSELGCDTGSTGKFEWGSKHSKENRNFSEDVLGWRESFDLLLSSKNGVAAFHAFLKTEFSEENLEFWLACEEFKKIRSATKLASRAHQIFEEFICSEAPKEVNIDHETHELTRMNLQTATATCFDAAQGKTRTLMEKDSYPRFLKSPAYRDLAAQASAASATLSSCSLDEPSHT
Target sequence (P09471 whole entry, looked up): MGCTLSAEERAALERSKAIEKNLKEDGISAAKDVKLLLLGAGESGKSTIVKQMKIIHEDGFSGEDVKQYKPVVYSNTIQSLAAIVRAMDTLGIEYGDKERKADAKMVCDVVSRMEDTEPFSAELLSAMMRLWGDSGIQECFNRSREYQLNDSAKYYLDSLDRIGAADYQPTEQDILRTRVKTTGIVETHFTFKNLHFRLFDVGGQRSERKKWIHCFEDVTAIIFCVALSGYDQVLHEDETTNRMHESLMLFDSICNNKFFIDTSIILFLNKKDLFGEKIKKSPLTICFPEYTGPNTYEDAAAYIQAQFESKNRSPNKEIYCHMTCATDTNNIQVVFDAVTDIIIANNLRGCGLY
GALR2 agonist = agonists of human galanin receptor 2 (GALR2); activation, %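 (tested at 5 µM)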; GALR2-expressing cells, agonist activation read-out; AID 803; 0.48% of 140,000 active;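 active means above mean plus 3 SD of all compounds, about 5% in these data, not always enough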;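 further: 0% = vehicle buffer wells and 100% = reference agonist at full effect; tested in CHO reporter cells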
Target sequence (O43603 whole entry, looked up): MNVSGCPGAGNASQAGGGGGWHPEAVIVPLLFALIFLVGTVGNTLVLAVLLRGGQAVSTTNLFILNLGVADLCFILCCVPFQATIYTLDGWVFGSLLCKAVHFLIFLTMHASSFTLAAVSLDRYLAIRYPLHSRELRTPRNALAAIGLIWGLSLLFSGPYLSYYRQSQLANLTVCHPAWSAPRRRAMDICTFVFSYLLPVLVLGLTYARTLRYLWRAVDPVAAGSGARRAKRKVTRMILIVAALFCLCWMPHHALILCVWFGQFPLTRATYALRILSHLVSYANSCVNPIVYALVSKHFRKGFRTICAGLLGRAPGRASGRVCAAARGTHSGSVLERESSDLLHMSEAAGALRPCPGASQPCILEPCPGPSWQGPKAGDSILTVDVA
HSV augment = increases HSV replication in cells | AID 1956 | 0.005% of 220,000 active | maximum fold increase | HSV replication augmentation in cells, fold increase;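 active means peak rise of 1.5-fold or more in the series; inconclusive means self-fluorescent or not available for retest; tested in PC3 cells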;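 further: first round at 10 µM; read as green reporter fluorescence; hits show the peak of a series up to 25 µM; 1 = signal of infected wells without compound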
PKD1 kinase inh = PKD1 (human) kinase inhibition | Q15139 | AID 797 | PKD1 kinase fluorescence polarization assay | inhibition, %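 (about 10 µM by stock and volumes)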 | 0.056% of 200,000 active;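 active means inhibition of 50% or more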;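 further: controls were vehicle for no effect and a reference inhibitor for full effect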
INS promoter inh = TRM-6 insulin promoter activity inhibition; TRM-6 cells (human fetal islet line), insulin promoter-eGFP reporter, imaging; reporter expression induced with tamoxifen; inhibition, % at 2 µM; 0.9% of 130,000 active;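 active means inhibition above the mean plus 3 SD, with well images judged a real hit on visual review, cut at about 60% in these data, passing the limit was not always enough; inconclusive means inhibition over the cutoff but images rejected on review; inactive means inhibition not above the cutoff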
INS promoter inh cell count = also measured in INS promoter inh; calls as there; normalized cell count, %; measured here: cell count, toxicity; reference of the scale not given here;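 cells exposed to compound for 48 h; stained nuclei by imaging scaled within each plate; lower means fewer cells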
HSV augment primary fold = second read-out of HSV augment, no call of its own (marks repeat the call); fold increase; compound at 10 µM; measured here: primary screen fold increase 10 uM; tested in PC3 cells;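 GFP signal in the first replicate; 1 = infected wells without compound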
Starred values were filed as active, the others as inactive; i = inactive; ? = inconclusive; / = not tested or not shown.

SMILES	RGS16-Gao HTS	GALR2 agonist	HSV augment	HSV augment primary fold	PKD1 kinase inh	INS promoter inh	INS promoter inh cell count
CCn1c2ccccc2c2cc(Nc3cc(C)nc4ncnn34)ccc21	111.7	2.7	i	0.5	-11.4	/	/
O=C(CC1NCCc2ccccc21)Nc1cccc(Cl)c1 (stereo not given)	99.4	/	i	0.94	-4.7	/	/
Cc1ccccc1-n1c(SC/C(O)=C(\C#N)c2nc3ccccc3[nH]2)nnc1-c1ccncc1	96.9	0.1	i	0.79	-5.2	23.1	123.6
O=C(COC(=O)c1ccccc1Cl)Nc1nccs1	81.7	-1.2	i	0.87	-15.5	-20.8	75.9
O=c1c(Cc2ccc(F)cc2)c(O)ccn1CCc1ccccn1	98.1	/	i	1.1	-2.8	15.0	117.8
Cc1cccc(NC(=O)/C(C#N)=C/c2ccc(Sc3ccccc3)o2)c1C	101.0	-0.6	i	0.98	-2.4	/	/
COc1ccc(N2C(=O)C(Cl)=C(Oc3cccc(OC)c3)C2=O)cc1	96.7	/	i	0.8	-0.2	/	/
Cc1ccccc1NC(=O)CN1C(=O)S/C(=C\c2cccn2-c2cccc(C(=O)O)c2)C1=O	107.1	-2.1	i	1.01	-1.2	34.6	64.0
N#Cc1c(NC(=O)C2C3C=CC(C3)C2C(=O)O)sc2c1CCCCC2 (stereo not given)	103.0	/	i	0.92	-7.6	/	/
COc1cccc(-n2c(SCc3ccccn3)nc3c(c2=O)SCC3)c1	104.4	/	i	1.01	2.5	0.0	113.0
CN(C)C(/C=C/Nc1ccccc1F)=C(C#N)C#N	95.5	-1.7	i	0.79	-8.5	/	/
O=C(CCC1(C(=O)O)CCC(=O)NC1)NCc1ccccc1 (stereo not given)	102.3	-2.1	i	0.78	-14.1	/	/
O=C(Nc1cccc(-c2cn3c(n2)SCC3)c1)c1ccc2ccccc2n1	85.8	/	i	0.94	-1.6	/	/
O=c1[nH]c(CN2CCN(c3ccccc3Cl)CC2)nc2ccsc12	98.4	-0.4	i	0.913	-14.2	/	/
CC(C)Oc1ccc(CSc2ncn[nH]2)cc1	102.4	/	i	0.84	-0.3	35.7	115.1
COc1ccc(CCNC(=O)CN(c2cccc([N+](=O)[O-])c2)S(C)(=O)=O)cc1	105.5	/	i	0.93	-7.1	-88.9	94.5
COc1ccc(/C=N/NC(=O)c2cc(-c3ccccc3OC)nc3ccccc23)cc1COC(C)=O	99.1	-0.7	?	/	-1.0	15.6	132.5
Cc1ccc(S(=O)(=O)C(C)C(=O)NCCS(=O)(=O)c2ccc(Cl)cc2)cc1 (stereo not given)	100.3	/	i	0.97	-0.2	/	/
N#CC1=C(N)C2=CCCC[C@H]2[C@H](c2ccccc2)C1(C#N)C#N	98.1	-0.5	i	1.21	7.6	-48.6	49.7
COCCCNC(=O)Cn1cc(C(C)=O)c2ccccc21	98.7	-1.1	i	1.1	-9.6	37.1	102.1
CCc1ccc(CCC(=O)Nc2nccs2)o1	-960.5	-1.2	i	0.95	6.0	/	/
CCOc1ccccc1NC(=O)CSc1nnnn1-c1ccccc1	80.6	-0.3	i	0.81	-2.2	-11.1	80.6
CCc1ccc(-n2c(SCC(=O)Nc3cc(C)[nH]n3)nc3[nH]ncc3c2=O)cc1	101.6	0.0	i	0.97	5.2	/	/
CN1CCC(N(C)C(=S)Nc2ccc(SC(F)F)cc2)CC1	110.7	0.5	i	0.87	-2.5	14.8	100.3
O=C(Nc1ccccn1)c1ccc([N+](=O)[O-])cc1Cl	99.7	-0.3	i	0.94	-8.5	/	/
COc1ccccc1-n1cn[nH]c1=S	102.5	/	i	0.88	/	/	/
CC1(C)CCCC(C)(C)N1CC(O)COCCOc1ccc(Br)cc1 (stereo not given)	97.5	-1.2	i	0.85	-7.6	-19.4	73.2
Cc1ccc(/C=C2\SC(=S)N(CC(=O)Nc3ncc(Cc4ccccc4Cl)s3)C2=O)cc1	107.7	0.1	/	/	-6.9	-27.9	108.3
CC(=O)Nc1ccc(NC(=O)CSc2ccc(-c3ccco3)nn2)cc1	100.4	/	i	0.98	-7.1	/	/
CCC(C)NC(=O)N[C@@H](CCSC)C(=O)O (stereo not given in full)	100.6	-2.4	i	0.8	-3.1	/	/
O=C(CN(c1ccc(F)cc1)S(=O)(=O)c1ccc2c(c1)OCCO2)NCc1ccncc1	102.7	-0.8	i	0.83	-9.7	-13.9	145.8
COCc1cc(C)nc(N2CCN(Cc3ccccc3)CC2)c1C#N	104.5	-2.7	i	0.95	-8.0	36.1	102.6
O=C1CCCN1CCC1CCN(C2CC(=O)N(c3ccc(F)cc3)C2=O)CC1 (stereo not given)	103.5	-1.9	i	1.03	-8.2	16.7	104.7
COCCN(C(=O)C(=O)NC1CCCC1)C(C(=O)NC1CCCC1)c1ccccc1F (stereo not given)	110.1	/	i	0.88	-9.8	/	/
Cc1nn(CCC#N)c(N)c1C1(O)C(=O)Nc2c(Cl)cc(Cl)cc21 (stereo not given)	107.9	/	i	1.21	/	/	/
CCOC(=O)c1cc(NC(=O)c2ccco2)ccc1N1CCOCC1	99.5	/	i	0.87	1.2	/	/
O=C1C2C3C=CC(C4CC34)C2C(=O)N1c1cc(Cl)ccn1 (stereo not given)	101.9	/	i	0.97	/	/	/
O=C(NN=C1CCN(Cc2ccccc2)CC1)c1ccccc1	100.3	0.7	i	1.09	-5.2	/	/
CS(=O)(=O)c1ccccc1-c1nnc(-c2ccc(Cl)cc2)o1	104.3	/	i	0.89	-6.4	30.8	135.4
CCN(CC)CCN(C)Cc1ccc(Br)cc1	100.1	-2.0	i	0.91	7.4	/	/
Cc1nc(N2CCOCC2)sc1C=O	106.5	/	i	1	-6.0	/	/
COC(=O)c1cnn(-c2ccccc2)c1/C=N/NC(=S)Nc1ccc(Cl)cc1	96.3	/	i	0.89	/	/	/
COc1ccc(/C=N/OCC(=O)N(Cc2ccccc2)c2ccccc2C(=O)O)cc1	109.6	-0.5	i	1	-5.2	21.4	107.3
Cc1ccc(/C=N/NC(=O)CSc2nnc(-c3ccc(Cl)cc3)n2-c2ccc(Cl)cc2)o1	96.7	0.6	/	/	1.2	/	/
O=C(Nc1ccon1)c1csc2c1CCCC2	102.7	-1.8	i	1.04	-0.4	56.2	130.3
CC1CN(C2CCCCC2)c2nc3c(c(=O)[nH]c(=O)n3C)n2C1 (stereo not given)	100.7	-0.5	i	1	-4.6	0.0	70.3
Cn1c2ccc(F)cc2c2nnc(NN)nc21	93.9	/	i	0.95	/	/	/
O=C(Nc1ccncc1)c1ccc2c(c1)OCCO2	102.4	-1.3	i	0.99	-4.0	-37.0	113.8
CN(C)S(=O)(=O)c1ccc2c(c1)c(=O)c(C(=O)NCCCN1CCCCCC1)cn2C	105.9	-1.3	i	0.91	20.5	/	/
OCCC1CN(Cc2ccc(-c3ccco3)cc2)CCN1Cc1ccsc1 (stereo not given)	112.1	/	i	1.02	-1.1	-86.7	63.6
Cc1ccc(C)c(NC(=O)CSc2nnc(-c3n[nH]c4ccccc34)o2)c1	107.8	-1.2	i	0.97	-20.7	-16.2	117.9
CSc1nc(N)nc(SCC(=O)Nc2cccc(F)c2)c1C#N	103.5	-2.3	i	0.92	3.3	31.2	72.0
COc1cccc(NC(=O)CCCn2c(=O)[nH]c3ccccc3c2=O)c1	102.5	-0.5	i	0.81	-8.8	/	/
COc1ccc(-c2c(C)nn3c(N4CCC(C(=O)N5CCCCC5)CC4)cc(C)nc23)cc1OC	102.4	/	i	0.71	/	/	/
Cc1ccccc1CSCCNC(=O)c1ccccc1	145.7	0.6	/	/	11.7	-91.7	93.5
CCOc1ccc(N(C(C)=O)C2C=CS(=O)(=O)C2)cc1 (stereo not given)	94.8	-0.7	i	0.82	-3.7	28.6	103.9
Cc1cc(C#N)c(SCC(N)=O)nc1-c1ccc(F)cc1	105.8	/	i	0.89	-5.1	/	/
CN(C)C(CNC(=O)CCOc1ccccc1)c1ccco1 (stereo not given)	94.5	/	i	0.96	-5.1	/	/
CC(C)COC(=O)n1c(SCC(N)=O)nc2ccccc21	107.5	/	i	0.93	/	/	/
CCc1nnc(NC(=O)c2cccc(S(=O)(=O)N3CC(c4ccccc4)CC3=O)c2)s1 (stereo not given)	102.2	-0.1	i	1.18	-3.2	/	/
Next section.
SMILES	RGS16-Gao HTS	GALR2 agonist	HSV augment	HSV augment primary fold	PKD1 kinase inh	INS promoter inh	INS promoter inh cell count
Cc1occc1-c1nnc(SCC(=O)Nc2nc(C(C)(C)C)cs2)o1	97.1	-1.6	i	0.93	-2.3	37.9	65.1
COC(=O)c1sc(N)c(C(=O)OC)c1COC(=O)c1c(C)noc1C	99.0	-1.6	i	0.56	-14.7	/	/
O=C(NCCc1nc2ccccc2[nH]1)c1ccc(F)cc1	102.6	-2.1	i	0.96	0.8	22.6	88.0
COCCn1c(SCC(=O)OC(C)C)nnc1-c1ccccc1	102.8	-1.7	i	1.06	-2.3	16.3	91.1
COc1ccc(-c2nnc3sc(C4CCCCC4)nn23)cc1OC	109.1	-0.1	i	0.83	-3.9	/	/
Cc1cc(=O)oc2cc(OC(=O)c3nn(C(C)C)c(=O)c4ccccc34)ccc12	113.6	0.8	i	0.92	-0.9	54.5	91.0
CN1CCC(=NNC(=O)C(=O)Nc2ccccc2F)CC1	95.4	/	i	0.92	0.7	0.0	128.3
COc1ccc(/C(O)=C2/C(=O)C(=O)N(c3ncccn3)C2c2ccc(OC)cc2)cc1 (stereo not given)	106.0	-1.3	i	1.03	-5.7	35.7	112.3
Cc1cccc(NC(=O)Cn2nnc(-c3ccc(CN4CCCC4)cc3)n2)c1C	101.8	-2.0	i	0.84	21.6	/	/
COC(=O)c1cn(-c2ccccc2)c(=O)c2ccccc12	98.5	/	i	0.93	-5.1	/	/
COc1ccc(C(=O)CN2CCN(c3ccc(F)cc3)CC2)cc1OC	102.5	-1.7	/	/	-4.8	12.9	60.2
c1ccc2oc(-c3csc(NCC4CCCO4)n3)cc2c1 (stereo not given)	99.2	/	i	1.08	0.8	/	/
CN(C)S(=O)(=O)c1ccc(Nc2ccc(-c3ccc4c(c3)OCCO4)nn2)cc1	94.8	-2.1	i	0.83	4.2	25.7	136.1
COc1ccc(S(=O)(=O)N2CCOCC2)cc1OC	51.4	-0.4	i	0.86	-11.9	13.3	102.5
CCCC1=C(C(=O)OCC)C(c2ccc(NC(C)=O)cc2)NC(=O)N1 (stereo not given)	103.9	-2.7	i	0.72	-8.0	31.0	100.7

A portion taken from the entries so far:
SMILES	RGS16-Gao HTS	GALR2 agonist	HSV augment	HSV augment primary fold	PKD1 kinase inh	INS promoter inh	INS promoter inh cell count
COCCn1c(SCC(=O)OC(C)C)nnc1-c1ccccc1	102.8	-1.7	i	1.06	-2.3	16.3	91.1
COc1ccc(-c2nnc3sc(C4CCCCC4)nn23)cc1OC	109.1	-0.1	i	0.83	-3.9	/	/
Cc1cc(=O)oc2cc(OC(=O)c3nn(C(C)C)c(=O)c4ccccc34)ccc12	113.6	0.8	i	0.92	-0.9	54.5	91.0
CN1CCC(=NNC(=O)C(=O)Nc2ccccc2F)CC1	95.4	/	i	0.92	0.7	0.0	128.3
COc1ccc(/C(O)=C2/C(=O)C(=O)N(c3ncccn3)C2c2ccc(OC)cc2)cc1 (stereo not given)	106.0	-1.3	i	1.03	-5.7	35.7	112.3
Cc1cccc(NC(=O)Cn2nnc(-c3ccc(CN4CCCC4)cc3)n2)c1C	101.8	-2.0	i	0.84	21.6	/	/
COC(=O)c1cn(-c2ccccc2)c(=O)c2ccccc12	98.5	/	i	0.93	-5.1	/	/
COc1ccc(C(=O)CN2CCN(c3ccc(F)cc3)CC2)cc1OC	102.5	-1.7	/	/	-4.8	12.9	60.2
c1ccc2oc(-c3csc(NCC4CCCO4)n3)cc2c1 (stereo not given)	99.2	/	i	1.08	0.8	/	/
CN(C)S(=O)(=O)c1ccc(Nc2ccc(-c3ccc4c(c3)OCCO4)nn2)cc1	94.8	-2.1	i	0.83	4.2	25.7	136.1
COc1ccc(S(=O)(=O)N2CCOCC2)cc1OC	51.4	-0.4	i	0.86	-11.9	13.3	102.5
CCCC1=C(C(=O)OCC)C(c2ccc(NC(C)=O)cc2)NC(=O)N1 (stereo not given)	103.9	-2.7	i	0.72	-8.0	31.0	100.7
